Bioassay records from PubChem BioAssay.
miR-21 reporter – miR-21 reporter, rising signal | 340,000 tested, under 10 active | Potency, µM (highest dose often 38.3 µM), for inactives: at the highest dose reporter change, positive = more light | HeLa miR-21 FLuc reporter, luciferase, 48 h; active = well fitted rising curve with a large enough effect; inconclusive = small, poorly fitted or top-dose-only effect; inactive = no such curve, though single readings can be large or run the other way;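 also: % of control where 0% means no effect; miR-21 action dims this reporter so a rising signal means less miR-21 action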
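HeLa miR-21-FLuc reporter line, endogenous miR-21; 2000 cells/well in DMEM/10% FBS; compound titration up to ~40uM final, 48 h, 37 degree Celsius; luciferase detection reagent, 15 min lysis, CCD luminescence.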
* marks the source's active call; other numbers are inactive results; ? = inconclusive; [ ] = dose if it differs, or a comment. A portion of the library; count on the stated rates, not on these rows.

SMILES	miR-21 reporter
Cc1cccc(-n2c(SCc3nc(-c4ccccc4C)no3)nnc2-c2ccccc2)c1	1%
Cc1ccc(-c2ccc(CCC(=O)O)n2-c2cccc(C)c2C)cc1	0%
Cc1c(C)c2cc3c(c(C)c2oc1=O)OCN(CCc1ccccc1)C3	-43%
CCOCCc1nn2c(=O)cc(COC(=O)CNC(=O)c3ccc(F)cc3)nc2s1	-2%
Cc1ccccc1NC(=O)CN1C(=O)CCn2nc(-c3cccn3C)cc21	-19%
CCOc1ccc(-c2nc(CSCC(=O)N3CCN(c4ccc(F)cc4)CC3)c(C)o2)cc1	?
CCN(CC)C(=O)c1sc(NC(=O)C2c3ccccc3Oc3ccccc32)c(C(=O)OC(C)C)c1C	1%
COc1ccc(-n2nnc(-c3nc(-c4cccs4)no3)c2N)cc1OC	-12%
COc1ccc(N(Cc2cccs2)C(=O)COc2ccc(C(C)C)cc2)cc1	17%
O=C(CN1C(=O)C2(SCC(=O)N2c2ccccc2)c2ccccc21)NCCc1ccccc1 (stereo unspecified)	-8%
CCNC(=O)CC1C(=O)N(c2ccc(F)cc2)C(=O)N1Cc1ccc(OC)c(OC)c1 (stereo unspecified)	0%
Cc1ccc(CSc2nc3ccncc3n2Cc2nc(-c3ccc(Cl)cc3)oc2C)cc1	-22%
O=C(COc1ccc(F)cc1)OCc1cc(=O)n2nc(C3CCCCC3)sc2n1	-8%
CCCCNC(=O)C(CC)Sc1nnc(-c2ccc(OC)c(OC)c2)c(-c2ccc(OC)c(OC)c2)n1 (stereo unspecified)	-4%
COc1ccc(-c2nc3ccccc3s2)cc1NC(=O)COc1ccccc1C	0%
CCC(=O)N1CCc2cc(S(=O)(=O)NCc3ccc(C)cc3)ccc21	-5%
CCOC(=O)c1ccc(N2C(=O)c3[nH]nc(-c4ccccc4)c3C2c2cccs2)cc1 (stereo unspecified)	-2%
O=C(Nc1cccc(Cl)c1)c1ccc2c(c1)CCN2S(=O)(=O)c1ccccc1	?
CN(c1ccc(F)cc1)S(=O)(=O)N1CCCC(C(=O)NCc2ccccc2Cl)C1 (stereo unspecified)	25%
O=C(NCCc1csc2nc(-c3ccc(F)cc3)nn12)c1ccco1	-7%
COc1ccccc1CNC(=O)c1cn(C)c2ccc(S(=O)(=O)N(C)C3CCCCC3)cc2c1=O	-13%
O=C(COCc1cc(-c2cccs2)on1)Nc1ccc(OC(F)(F)F)cc1	-6%
COc1ccccc1N1CCN(C(=O)c2cc3c(=O)n(Cc4cccnc4)ccc3nc2C)CC1	0%
COc1ccccc1-c1nnc(SCC(N)=O)o1	-44%
O=C(NCc1cccc(Cl)c1)c1ccc(NC(=O)N2CCSc3ccccc32)cc1	-6%

Ordered by count of non-hydrogen atoms (falling): some entries from above
SMILES	miR-21 reporter
Cc1cccc(-n2c(SCc3nc(-c4ccccc4C)no3)nnc2-c2ccccc2)c1	1%
COc1ccc(-c2nc3ccccc3s2)cc1NC(=O)COc1ccccc1C	0%
CCC(=O)N1CCc2cc(S(=O)(=O)NCc3ccc(C)cc3)ccc21	-5%

The main list resumes; the two compounds before the break are reprinted first.
SMILES	miR-21 reporter
COc1ccccc1-c1nnc(SCC(N)=O)o1	-44%
O=C(NCc1cccc(Cl)c1)c1ccc(NC(=O)N2CCSc3ccccc32)cc1	-6%
CC(C)c1ccc(NC(=O)CSc2nc(=O)n(Cc3ccccn3)c3c2CCC3)cc1	-6%
CCn1cc(S(=O)(=O)c2ccccc2)c(=O)c2cc(F)c(F)cc21	-3%
CCc1ccc2occ(CC(=O)N(Cc3ccccc3)C3CCS(=O)(=O)C3)c2c1 (stereo unspecified)	-3%
CNC(=O)c1ccc(-c2nc(CN3CCc4ccccc43)c(C)o2)cc1	-14%
COc1cc(NC(=O)N2CCSc3ccccc32)cc(OC)c1OC	2%
Cc1cccc(CSc2nc(=O)c3c(n2C)NC(=O)CC3c2cccc(O)c2)c1 (stereo unspecified)	0%
COCCNC(=O)Cc1ccc(NC(=O)N2CCCCc3ccccc32)cc1	-2%
CC(C)Oc1ccc(CNC(=O)C2CCN(C(=O)c3sccc3-n3cccc3)CC2)cc1	4%
CCC1CN(C(=O)N2CCC(C(=O)N3CCN(c4ccc(F)cc4)CC3)CC2)c2ccccc2O1 (stereo unspecified)	-23%
CCc1nn(C(CC)C(=O)NCc2ccc(OC)c(OC)c2)c(=O)c2cc3oc(C)cc3n12 (stereo unspecified)	18%
O=C(Cn1c(=O)nc(-c2ccccc2F)c2cc(Cl)ccc21)Nc1ccccc1C(F)(F)F	17%
Cc1cccc(NC(=O)C2CCN(c3nc4ccccc4[nH]3)CC2)c1C	1%
CN(c1ccccc1)S(=O)(=O)c1nnc(NC(=O)c2ccccc2)s1	-45%
Cc1c(C(=O)Nc2cccc(Cl)c2)sc2nc3n(c(=O)c12)N=C(c1cccc(Br)c1)CS3	0%
Cc1ccc2nc3c(cc(C(=O)NCc4ccco4)c(=N)n3C3CCCC3)c(=O)n2c1	-9%
Cc1c(Cl)cccc1N1CCn2c1nc1c2c(=O)n(CC(=O)O)c(=O)n1C	2%
CCOc1cccc(C(=O)N(Cc2ccc(F)cc2)Cc2ccco2)c1	7%
O=C(NCCCc1nc2ccccc2n1Cc1cccc(Cl)c1)c1ccco1	-1%
COC(=O)c1ccc2c(=O)n(CCCCCC(=O)NCCc3ccccc3)c(=O)[nH]c2c1	9%
COc1ccccc1CNC(=O)CCCn1c(=O)c2ccccc2n(Cc2ccccc2F)c1=O	-5%
CCOc1ccc(C2=NC(c3ccncc3)=Nc3ccc(C)cc3N2)cc1OCC	1%
CCOc1ccc(-n2c(SCc3ccc(C(=O)OC)o3)nc3c([nH]c4ccccc43)c2=O)cc1	-6%
CCn1nnc2cc(C(=O)Nc3ccc(C)c(Cl)c3)ccc21	-47%
O=C(NC1CCCCC1)c1ccc2c(c1)N(Cc1ccc(F)cc1)C(=O)c1ccccc1S2(=O)=O	2%
COc1ccccc1OCCn1c(NC(=O)c2ccccc2Cl)nc2ccccc21	17%

Further records
SMILES	miR-21 reporter
CCC(C)NC(=O)Cn1c(=O)cc(-c2ccccc2)c2c(C)nn(C)c21 (stereo unspecified)	-26%
COc1ccc(CNC(=O)CCCn2c(=O)c3cccn3c3cccnc32)cc1	-12%
CC1CCN(c2ncnc3c2cnn3-c2ccc(F)cc2)CC1	-17%
Cc1cc(C)cc(NC(=O)CCCN2C(=O)COc3ccc(C)cc32)c1	0%
CC(C)CC(=O)Nc1nnc(S(=O)(=O)N(C)Cc2ccc(Cl)cc2)s1	4%
Cc1cccc(NC(=O)C(Cc2ccccc2)N2Cc3ccccc3C2=O)c1C (stereo unspecified)	5%
CCOc1ccccc1NC(=O)Cn1c(=O)ccc2cc(S(=O)(=O)N3CCC(C)CC3)ccc21	5%
CCc1ccc(NC(=O)c2cc(C(C)=O)n3ccccc23)cc1	-15%
Cc1ccc(Cn2ccnc2SCC(=O)Nc2nc3ccccc3s2)cc1	-7%
Cc1ccc(Cl)cc1Nc1nn2c(=O)c3ccc(C(=O)NCc4ccc(F)cc4)cc3nc2s1	6%
CCOC(=O)C1=C(CN2CCN(c3cccc(Cl)c3)CC2)NC(=O)NC1c1ccc(Cl)cc1 (stereo unspecified)	-1%
Cc1ccc(S(=O)(=O)CC(=O)Nc2sc3c(c2C#N)CCCC3)cc1	-4%
Cc1c(-c2nsc(NC(=O)c3ccccc3)n2)nnn1-c1ccc(C(F)(F)F)c(Cl)c1	-18%
CCCOc1cccc(C2c3c(oc4ccc(F)cc4c3=O)C(=O)N2CCc2ccc(OC)cc2)c1 (stereo unspecified)	-3%
Cc1ccn2c(Nc3ccc(F)cc3)c(-c3ccc(C)o3)nc2c1	-25%
CCOc1ccc(NC(=O)CSc2nnc(-c3ccc(OCC)cc3)o2)cc1	-2%
O=C(NCc1ccc2c(c1)OCO2)c1ccc2c(c1)N(Cc1cccc(Cl)c1)C(=O)c1ccccc1S2	-1%
CCc1ccc(NC(=O)c2ccc3c(O)c(S(=O)(=O)c4ccc(Cl)cc4)c(=O)[nH]c3c2)cc1	4%
COc1ccccc1CN(Cc1c(Cl)cccc1Cl)S(=O)(=O)c1ccc(Br)cc1	0%
Cc1ccc(C)c(CSc2nc(-c3ccccc3F)nc3c2Cc2c(CO)cnc(C)c2O3)c1	-1%
O=C(OCc1ccccc1Cl)c1ccc(-c2nnn(Cc3ccccc3Cl)n2)cc1	-4%
Cc1ccc(S(=O)(=O)c2cn(C)c3cc(N4CCCCC4)c(F)cc3c2=O)cc1	-4%
O=C(NCCc1csc2nc(-c3cccc(F)c3)nn12)c1ccc(Br)o1	7%
Cc1ccc(C)c(NC(=O)CCCn2nc(C)c3sc4ccccc4c3c2=O)c1	-46%
Cc1nc(N2CCCC2)c2c(C(=O)N3CCN(c4ccccc4)CC3)c(C)oc2n1	-3%

Laid out differently: results already given
miR-21 reporter,SMILES
0%,Cc1cc(C)cc(NC(=O)CCCN2C(=O)COc3ccc(C)cc32)c1
4%,CC(C)CC(=O)Nc1nnc(S(=O)(=O)N(C)Cc2ccc(Cl)cc2)s1
5%,Cc1cccc(NC(=O)C(Cc2ccccc2)N2Cc3ccccc3C2=O)c1C (stereo unspecified)
5%,CCOc1ccccc1NC(=O)Cn1c(=O)ccc2cc(S(=O)(=O)N3CCC(C)CC3)ccc21
-15%,CCc1ccc(NC(=O)c2cc(C(C)=O)n3ccccc23)cc1

Following part
SMILES	miR-21 reporter
CCCCNc1nc2c(S(=O)(=O)c3ccc(C)c(C)c3)nnn2c2ccsc12	-30%
COc1ccc(CNC(=O)c2cc3cccc4c3n2CC(C)S4)cc1OC (stereo unspecified)	6%
CCc1ccc2c(c1)-c1ccccc1S(=O)(=O)N2CC(=O)N1CCCCC1	-44%
CCOc1ccccc1NC(=O)Cn1c(=O)n(CCC(=O)NCc2ccc3c(c2)OCO3)c(=O)c2ccccc21	-8%
CCOc1cccc(CC(=O)N2CCc3c([nH]c4ccccc34)C2c2ccccc2)c1OCC (stereo unspecified)	21%
O=C(CSc1ncc2c(n1)-c1ccccc1N(Cc1ccc(Cl)cc1)S2(=O)=O)c1ccccc1	-2%
Cn1c(=O)[nH]c2cc(-c3noc(-c4ccc(C#N)cc4)n3)ccc21	-6%
COc1ccccc1CNc1ncnc2onc(-c3ccc(Cl)cc3)c12	0%
COc1cccc(-c2nc(CS(=O)CC(=O)N3CCN(c4cccc(C(F)(F)F)c4)CC3)c(C)o2)c1 (stereo unspecified)	30%
COc1cc(NC(=O)CCCOc2cc(=O)n(C)c3ccccc23)cc(OC)c1OC	-2%
CCOc1ccc(/C=C/c2nc(C#N)c(N(C)C)o2)cc1	-81%
O=C(Cc1ccc(Cl)cc1)Nc1ccc2oc(-c3ccc(F)cc3)nc2c1	-18%
CCOc1ccccc1N(C)C(=O)c1c2c(nc3ccccc13)C(=O)N(C1CCCCC1)C2	7%
CCc1ccc2c(c1)NC(c1ccc(F)cc1)=NC(c1ccncc1)=N2	1%
Cc1cc(Cl)ccc1NC(=O)c1cc(S(=O)(=O)N2CCOCC2)cn1C	1%
Cn1c(=O)n(-c2ccc3c(c2)OCO3)c2nc(-c3ccc(Cl)cc3)nc(C(N)=O)c21	2%
Cc1cc(C)c(/C=C/c2onc(C)c2S(=O)(=O)N2CCC(C(=O)Nc3ccc(Cl)c(C(F)(F)F)c3)CC2)c(C)c1	3%
COc1ccc(NC(=O)Cn2cnc3sc(C)c(S(=O)(=O)N4CCN(c5ccccc5OC)CC4)c3c2=O)cc1OC	-14%
CSc1nn(Cc2ccc(Cl)cc2)c(N(C(C)=O)C(C)=O)c1S(=O)(=O)c1ccccc1	24%
CCCCn1c(C)cc2c(c1=O)[C@H]1O[C@](CCCC)(Cc3c1ccc1ccccc31)O2	1%[7.66 µM]
Cc1ccc(S(=O)(=O)c2nnn3c2nc(Nc2ccc(C(C)C)cc2)c2sccc23)cc1C	-1%
Cc1ccc(C(=O)Nc2cc(-c3cn4cccnc4n3)ccc2C)cc1C	-5%
COc1ccc(-c2c(C)c3ccc(OCC(C)=O)cc3oc2=O)cc1	1%
CCOc1ccc(OCC)c(S(=O)(=O)N2CCN(c3cccc(C)c3C)CC2)c1	21%
CCc1ccc(NC(=O)c2ccc(NS(=O)(=O)c3c(C)noc3C)cc2)cc1	-1%

Continuation.
SMILES	miR-21 reporter
Oc1c(C(c2cccc(Cl)c2)N2CCOCC2)sc2nc(-c3ccco3)nn12 (stereo unspecified)	-3%
COc1cc(Cl)ccc1OC(=O)c1cn(-c2ccccc2OC)c(=O)c2ccccc12	1%
CCCCCc1nn2cc(-c3ccccc3)nc2s1	-14%
CC(C)(C)C(=O)NC1(C(F)(F)F)C(=O)Nc2c1c(=O)[nH]c(=O)n2-c1ccccc1 (stereo unspecified)	-2%
Cc1ccc(NC(=O)CCCc2nnc3n(C)c(=O)c4sccc4n23)cc1C	-10%
CC(CNC(=O)Cn1ccc2cc(S(=O)(=O)N3CCCCC3)ccc21)c1ccccc1 (stereo unspecified)	12%
CCc1ccc(NC(=O)Cn2nc(SC)c(S(=O)(=O)c3ccc(OC)cc3)c2N)cc1	0%
CCCC(=O)Oc1c(Sc2ccc(Cl)cc2)c(C)nn1-c1ccccc1	-1%
